PV pol inh: poliovirus RNA polymerase inhibition. AID 588519. % elongation, % (compound at 16.7 µg/mL). poliovirus polymerase elongation, fluorescence polarization; stronger effect = lower value. P03300. 150,000 tested, 0.66% active; in the data active means % elongation below about 90%; further: some results filed as inactive read as strong as hits
Target sequence (P03300 1749-2209 limits assumed): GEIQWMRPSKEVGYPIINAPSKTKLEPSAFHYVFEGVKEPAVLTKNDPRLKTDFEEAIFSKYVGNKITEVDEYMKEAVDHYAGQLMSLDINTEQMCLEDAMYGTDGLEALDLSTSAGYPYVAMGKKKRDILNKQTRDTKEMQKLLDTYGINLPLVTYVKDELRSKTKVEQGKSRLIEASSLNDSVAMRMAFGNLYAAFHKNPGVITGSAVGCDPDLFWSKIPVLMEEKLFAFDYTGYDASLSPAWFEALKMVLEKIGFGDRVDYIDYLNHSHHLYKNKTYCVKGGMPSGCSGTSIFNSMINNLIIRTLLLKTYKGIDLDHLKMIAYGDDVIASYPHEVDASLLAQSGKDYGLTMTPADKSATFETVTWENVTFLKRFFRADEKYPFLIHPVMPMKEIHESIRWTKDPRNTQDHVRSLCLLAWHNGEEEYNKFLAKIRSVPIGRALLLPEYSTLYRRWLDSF
PV pol inh intensity: second read-out of PV pol inh, no call of its own (marks repeat the call); % elongation; measured here: total intensity read-out; formula for this scale not given here;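 total fluorescence in place of polarization; lower means less elongation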
* hit, by the source's call. These rows are one share of the data (hit frequency here may not be typical).

mol,PV pol inh,PV pol inh intensity
O=C(Nc1ccc(Br)cc1F)N1CCC2(CC1)Oc1ccccc1C(=O)N2Cc1ccccc1F,112,110
Cc1cccc(N2C(=O)CSC23C(=O)N(CC(=O)NCc2ccccc2Cl)c2ccccc23)c1 (configuration not stated),103,100
CC(=O)Nc1cc(C(=O)NCc2ccc(F)cc2Cl)ccc1Sc1ccc(Cl)cc1,115,111
COc1ccc(N2CCN(C(c3ccccc3)c3sc4nc(-c5ccco5)nn4c3O)CC2)cc1 (configuration not stated),105,104
COc1ccc(NC(=O)CSC2=Nc3ccccc3C3=NC(CC(=O)NCc4ccc(F)cc4)C(=O)N23)cc1 (configuration not stated),109,114
CC(C(=O)NCc1ccccc1)n1ccc2cc(S(=O)(=O)N3CCCC3)ccc21 (configuration not stated),105,107
COc1cc(CNCCSc2nnnn2C)ccc1OCc1ccccc1,101,102
COc1ccc(-c2c(C)nn3c(C(F)(F)F)cc(-c4ccccc4)nc23)cc1,103,103
CC(C)c1ccc(NC(=O)C2CCCN(S(=O)(=O)c3ccc4[nH]c(=O)oc4c3)C2)cc1 (configuration not stated),104,98
Cc1cccc(-c2nc3c4ccccc4nc(NCCc4ccccc4)n3n2)c1,107,104
COc1ccc(CCNC(=O)CCc2c(C)c3cc4c(C)c(C)oc4cc3oc2=O)cc1OC,114,111
CCCc1cc(=O)[nH]c(SCc2nc(-c3ccc(OC)cc3)no2)n1,104,105
CCCCn1cc(S(=O)(=O)c2ccc(F)cc2)c(=O)c2ccccc21,103,110
COC(=O)c1ccc2nc(C)cc(Nc3cccc(Cl)c3C)c2c1,101,96
CCOC(=O)c1ccc(NC(=O)CC2NCCNC2=O)cc1 (configuration not stated),103,106
O=C(CSc1nc2c(oc3ccccc32)c(=O)n1Cc1ccco1)Nc1ccccc1,110,107
Cc1ccc(Cn2cccc(C(=O)Nc3ccc4c(c3)OCO4)c2=O)cc1,107,107
CCc1cccc(NC(=O)CN2C(=O)COc3ccc(S(=O)(=O)Nc4ccccc4)cc32)c1,104,103
COc1ccccc1Nc1nc2c(S(=O)(=O)c3ccc(C(C)C)cc3)nnn2c2ccsc12,112,99
Cc1ccc(C(=O)c2cn(Cc3cccc(Cl)c3)c3nc(C)ccc3c2=O)cc1,108,119
Cc1ccc(S(=O)(=O)Nc2cc3c(cc2C)n(C)c(=O)c(=O)n3C)cc1,110,115
COc1ccc(N(CC(C)C)S(=O)(=O)c2nnc(NC(=O)c3ccco3)s2)cc1,113,115
COc1ccc(OC)c(NC(=O)c2cccn2-c2nnc(N3CCCCC3)s2)c1,108,112
O=S(=O)(c1ccc(-c2cnc(C3CC3)o2)cc1)N1CCN(c2cccc(Cl)c2)CC1,105,111
COc1ccccc1NC(=O)CSc1oc(-c2ccco2)nc1S(=O)(=O)c1ccc(C)cc1,108,113
COc1cccc(CNC(=O)c2ccc(NC(=O)N3CCCCc4ccccc43)cc2)c1,113,113
CCc1cccc(C)c1NC(=O)c1cc(S(=O)(=O)N2CCC3(CC2)OCCO3)ccc1F,108,102
CCC(C(=O)N(C)Cc1ccccc1)n1nc(C)c2sc3ccccc3c2c1=O (configuration not stated),111,110
Cc1ccc(C(=O)Nc2ccc(C(=O)OCc3cc(=O)n4c5c(sc4n3)CCCC5)cc2)cc1,112,113
COc1ccc(N(Cc2cccs2)C(=O)Nc2ccccc2)cc1,104,108
Cc1ccc(NC(=O)Cn2nnc(C(=O)NCCc3ccccc3)c2N)cc1Cl,107,115
Cc1ccc2nc(-c3cc(NC(=O)COc4ccc(C)c(C)c4)ccc3Cl)oc2c1,101,103
O=C(CCS(=O)(=O)c1cc2c3c(c1)CCN3C(=O)CC2)NCc1ccc(F)cc1,105,114
COC(=O)c1c(NC(=O)CCCOc2cccc(C)c2)sc2c1C(C(=O)OC)CC2 (configuration not stated),81*,80*
COc1ccc(C(=O)Nc2ccc3nc(N4CCC(C)CC4)cc(C)c3c2)cc1,101,103
Cc1ccc(OCC(=O)Nc2cc(-c3cccc(C)c3)nn2-c2ccccc2)cc1,108,113
COc1ccc(-c2nnc(SCC(=O)NCc3ccccc3)nc2-c2ccc(OC)c(OC)c2)cc1OC,101,107
CCOC(=O)c1cc(-c2ccccc2)n(-c2cccc(C(=O)Nc3cc(OC)cc(OC)c3)c2)c1C,106,108
c1ccc(-n2ncc3c(NC4CCCC4)ncnc32)cc1,107,98
COC(=O)c1c(NC(=O)c2ccc(OC)cc2OC)sc2c1CCCCC2,100,97
COC(=O)c1ccccc1NC(=O)c1ccc2c(Cl)c3c(nc2c1)CCCC3,104,106
COc1cccc(CNC(=O)c2nn(-c3ccccc3Cl)nc2CO)c1,98,106
COc1ccc(C)cc1NC(=O)Nc1cccc(-c2noc(C)n2)c1,109,109
CCN(CC)S(=O)(=O)c1ccc2c(c1)nc(CN(C)C(=O)Nc1cccc(Cl)c1)n2C,108,109
CC(=O)c1c(C)oc2ccc(N(C(=O)Oc3ccccc3)S(=O)(=O)c3ccccc3)cc12,103,105

Two compounds picked at random from those above:
mol,PV pol inh,PV pol inh intensity
CCN(CC)S(=O)(=O)c1ccc2c(c1)nc(CN(C)C(=O)Nc1cccc(Cl)c1)n2C,108,109
O=C(CCS(=O)(=O)c1cc2c3c(c1)CCN3C(=O)CC2)NCc1ccc(F)cc1,105,114

Going on with the list:
mol,PV pol inh,PV pol inh intensity
Cc1ccccc1-c1nc(NC(=O)CSc2ncnc3sc4c(c23)CCCC4)ns1,106,107
COc1ccccc1NC(=O)C1=C(C)Nc2ncnn2C1c1ccc[nH]1 (configuration not stated),116,110
COc1cc(OC)cc(-n2c(=O)c3sccc3n(Cc3cc(=O)n4c(C)cccc4n3)c2=O)c1,99,99
O=C(NCC(c1ccco1)S(=O)(=O)c1cccs1)c1ccc(F)cc1 (configuration not stated),101,102
CCOc1ccc(NC(=O)C2CC(=O)NC(=Nc3ccc(Cl)c(Cl)c3)S2)cc1 (configuration not stated),105,106
CC(=O)N1CCCc2cc(S(=O)(=O)N3CCCC(C(=O)NCc4ccc(Cl)cc4)C3)ccc21 (configuration not stated),110,109
Cc1c(Cl)cccc1-n1ncc(C(=O)N2CCC(C)CC2)c1C1CCN(C(=O)OC(C)(C)C)CC1,107,113
CCOc1ccc(NC(=O)Cn2cc(C(=O)c3ccc(C)c(C)c3)c(=O)c3cc(F)ccc32)cc1,107,108
COc1ccc(C)cc1NS(=O)(=O)c1ccc2[nH]c(=O)c(=O)[nH]c2c1,98,102
COC(=O)Cc1c(C)nc2nc(NCc3ccc(Br)cc3)[nH]n2c1=O,113,109
Cc1ccc(Cn2c(=O)c3cccnc3n(Cc3ccc(C)cc3)c2=O)cc1,106,112
COc1ccc(-c2cc(C(=O)NCCc3ccc(OC)c(OC)c3)c3c(-c4ccc(F)cc4)[nH]nc3n2)cc1,107,109
O=C(Nc1ccc(F)c(Cl)c1)C1CCN(c2ncccn2)CC1,108,113
Cc1cc(F)ccc1NC(=O)C1CCC(CNS(=O)(=O)c2ccc3c(c2)CCCC(=O)N3)CC1 (configuration not stated),106,111
Cc1ccc(C)c(CN2C(=O)c3ccccc3S(=O)c3ccc(C(=O)N4CCN(c5ccccc5F)CC4)cc32)c1 (configuration not stated),106,106
NC(=O)CSc1ncc2c(n1)-c1ccccc1N(Cc1ccc(F)cc1)S2(=O)=O,110,115
COc1ccc(NC(=O)c2sc3nc(C)c(C(=O)Nc4ccc(C)cc4C)c(-c4ccc(Cl)cc4)c3c2N)cc1,104,107
O=C(Nc1ccc(C(=O)N2CCN(c3ccc(F)cc3)CC2)cc1)c1nsc2ccccc12,102,103
COc1ccc(OC)c(NC(=O)Cn2c(=O)n(Cc3nc(C)no3)c(=O)c3ccccc32)c1,103,103
Cc1ccc(-n2ncc3c(Nc4ccc5c(c4)OCCO5)ncnc32)cc1Cl,99,96
COc1ccc2c(c1)CC(NC(=O)Nc1ccc(Br)c(C)c1)CO2 (configuration not stated),108,111
O=C(Cn1c(-c2cccs2)cc2cc(Cl)ccc21)N1CCCCC1,113,105
COc1cccc(C(=O)N(Cc2sccc2C)C2CCS(=O)(=O)C2)c1 (configuration not stated),121,122
Cc1cccc(OCC(=O)N(Cc2cccc(Cl)c2)Cc2ccco2)c1C,110,107
COc1ccccc1CNC(=O)CSc1nc2nc(C)c(Cc3ccccc3Cl)c(C)n2n1,107,110
O=S(=O)(c1ccc(C2CCCCC2)cc1)N1CCN(c2cc(Cl)ccc2Cl)CC1,105,109
Cc1ccc(NS(=O)(=O)c2ccc3nc(-c4ccccc4)[nH]c3c2)cc1Cl,107,101
CCN(CC)CCCNC(=O)c1ccc2c(=O)n(CCc3ccccc3)c(=O)[nH]c2c1,109,110
Cc1ccccc1C(=O)NC1(C(F)(F)F)N=C(c2ccccc2)N(C2CCCCC2)C1=O (configuration not stated),108,111
CCc1ccc2c(c1)NC(c1cccnc1)=NC(c1ccc(C(C)(C)C)cc1)=N2,104,109
COC(=O)c1ccccc1NC(=O)CCCn1nc(C)c2c(C)n(-c3ccccc3)nc2c1=O,111,107
COCCCNC(=O)c1ccc(-n2c(-c3ccccc3)cc3c2CCC(C)C3)cc1 (configuration not stated),105,100
O=C1CC(c2ccc(F)cc2)c2c(c3ccccc3[nH]c2=O)O1 (configuration not stated),102,102
CCCCc1ccc(-n2nc3cc(Cl)c(NC(=O)c4ccc(OC)cc4)cc3n2)cc1,109,112
COc1cc2c(cc1OC)C(COc1ccc3c(C)cc(=O)oc3c1)N(C(=O)c1cccc(OC)c1OC)CC2 (configuration not stated),107,108
N#Cc1ccccc1Cn1cnc2nc3c(cc2c1=O)CCCC3,111,114
CCCCN(CCCC)CCNC(=O)Cn1nc(CC)n2c(cc3sccc32)c1=O,105,106
CN(C)c1ccc(CNC(=O)C2CCN(S(=O)(=O)c3ccc4c(ccn4C)c3)CC2)cc1,108,111
Cc1ccc(C)c(NC(=O)Cn2ncc3c([nH]c4ccccc43)c2=O)c1,100,107
Cc1cc(F)ccc1NC1(c2ccccc2)C(=O)c2ccccc2C1=O,108,110
O=C(Nc1ccc(F)c(F)c1)c1cc(S(=O)(=O)NC2CCCCCC2)ccc1F,111,114
CCc1ccc(S(=O)(=O)c2cn(C)c3cc(N4CCCC4)c(F)cc3c2=O)cc1,112,113
CN(C)c1ccc(CNc2nc(-c3ccco3)nn2S(=O)(=O)c2ccc(Cl)cc2)cc1,104,96
COc1cc(-c2noc(-c3ccc(N4CCOCC4)c([N+](=O)[O-])c3)n2)cc(OC)c1OC,105,113
COc1ccc(N(C(=O)c2cccc(C)c2)S(=O)(=O)c2ccc(C)cc2)cc1,108,110

One compound at a time (already shown). Order of values: PV pol inh, PV pol inh intensity
`COc1ccc(N(CC(C)C)S(=O)(=O)c2nnc(NC(=O)c3ccco3)s2)cc1` is entered as 113, 115
`O=C(Nc1ccc(F)c(Cl)c1)C1CCN(c2ncccn2)CC1` is entered as 108, 113
`CC(=O)N1CCCc2cc(S(=O)(=O)N3CCCC(C(=O)NCc4ccc(Cl)cc4)C3)ccc21` (configuration not stated) is entered as 110, 109
`O=C(Nc1ccc(F)c(F)c1)c1cc(S(=O)(=O)NC2CCCCCC2)ccc1F` is entered as 111, 114
`O=C1CC(c2ccc(F)cc2)c2c(c3ccccc3[nH]c2=O)O1` (configuration not stated) is entered as 102, 102

Next section:
mol,PV pol inh,PV pol inh intensity
CCCC(=O)Nc1nnc(SCc2cc(=O)c3cc(C)ccc3[nH]2)s1,107,113
Cc1cc2oc(=O)c(CC(=O)O)c(C)c2c2occ(-c3ccccc3)c12,101,103
O=C(NCCc1ccccc1)c1ccc(CS(=O)(=O)Cc2ccccc2Cl)o1,108,112
COc1ccc(N2C(=O)CSC23C(=O)N(CC(=O)NCCc2ccccc2)c2ccccc23)cc1 (configuration not stated),107,109
COC(=O)c1ccc(NC(=O)CSc2n[nH]c(-c3ccccc3)n2)cc1,115,109
O=C1C(=O)N(C2CCN(C(=O)c3ccc(Cl)cc3)CC2)CCN1Cc1ccc(F)cc1,107,110
CCCN1CCN(CCNC(=O)Nc2ccc(OC)cc2OC)CC1,109,106
CCc1cccc(C)c1NC(=O)Cn1ccn(-c2cccc(OC)c2)c(=O)c1=O,111,114
COc1cccc(C(=O)NCC(c2ccc(N(C)C)cc2)N2CCc3ccccc32)c1OC (configuration not stated),108,112
Cn1c(=O)n(C/C=C/c2ccccc2)c(=O)c2c1nc1n2CCN1c1ccc(F)cc1,115,115
CCOC(=O)c1cc(-c2ccccc2)n(CC(=O)NCc2ccccc2)c1C,113,116
Cc1ccc(OC(C)C(=O)NCC2(N3CCOCC3)CCCCC2)cc1C (configuration not stated),106,112
CCCCN(CCCNC(=O)CN1N=C(c2ccccc2)CCC1=O)c1ccccc1,106,105
CCOC(=O)Cc1ccc(NC(=O)NCc2ccc3c(c2)CCN3C(=O)CC)cc1,111,117
CCOc1ccc(-c2nc(SCC(=O)c3ccccc3)n[nH]2)cc1,103,100
